From PubChem BioAssay
HSV augment: HSV replication enhancement; hit rate 0.005% among 220,000; maximum fold increase; AID 1956; HSV replication augmentation in cells, fold increase;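 active = peak rise of 1.5-fold or more in the series; tested in PC3 cells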;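 note: first round at 10 µM; read as green reporter fluorescence; hits show the peak of a series up to 25 µM; 1 = signal of infected wells without compound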
PKD1 inh: blocks activity of human protein kinase D1; Q15139; PKD1 kinase fluorescence polarization assay; inhibition, %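 (about 10 µM by stock and volumes)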; hit rate 0.056% among 200,000; AID 797;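 active = inhibition of 50% or more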;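 note: controls were vehicle for no effect and a reference inhibitor for full effect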
Target sequence (Q15139 whole entry, looked up): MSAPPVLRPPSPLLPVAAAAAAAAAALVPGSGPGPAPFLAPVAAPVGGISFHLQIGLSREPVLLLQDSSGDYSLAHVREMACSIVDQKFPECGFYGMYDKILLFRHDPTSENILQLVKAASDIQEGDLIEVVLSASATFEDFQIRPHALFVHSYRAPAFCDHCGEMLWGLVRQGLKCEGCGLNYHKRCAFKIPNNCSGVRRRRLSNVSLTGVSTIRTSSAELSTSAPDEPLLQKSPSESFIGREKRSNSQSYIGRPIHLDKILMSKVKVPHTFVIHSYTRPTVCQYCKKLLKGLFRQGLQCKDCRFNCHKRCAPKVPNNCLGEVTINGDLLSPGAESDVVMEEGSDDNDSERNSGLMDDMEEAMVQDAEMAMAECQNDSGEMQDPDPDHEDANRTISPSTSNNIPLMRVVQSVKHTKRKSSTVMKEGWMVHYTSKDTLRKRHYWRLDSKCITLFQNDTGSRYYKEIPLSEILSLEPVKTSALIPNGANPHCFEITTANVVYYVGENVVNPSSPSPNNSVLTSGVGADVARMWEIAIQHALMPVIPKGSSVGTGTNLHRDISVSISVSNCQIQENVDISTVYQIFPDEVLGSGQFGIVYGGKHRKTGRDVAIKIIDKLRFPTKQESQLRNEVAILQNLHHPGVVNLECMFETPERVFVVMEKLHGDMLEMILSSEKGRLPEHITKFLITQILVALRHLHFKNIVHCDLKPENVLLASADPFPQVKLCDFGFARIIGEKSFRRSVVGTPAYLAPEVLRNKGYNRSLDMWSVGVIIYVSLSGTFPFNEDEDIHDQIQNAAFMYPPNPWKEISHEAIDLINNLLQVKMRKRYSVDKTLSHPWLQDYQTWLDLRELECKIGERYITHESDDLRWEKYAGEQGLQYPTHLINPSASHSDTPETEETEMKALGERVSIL
INS promoter inh: TRM-6 insulin promoter activity inhibition. TRM-6 cells (human fetal islet line), insulin promoter-eGFP reporter, imaging; reporter expression induced with tamoxifen. inhibition, % at 2 µM. hit rate 0.9% among 130,000. AID 1273;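 active = inhibition above the mean plus 3 SD, with well images judged a real hit on visual review, cut at about 60% in these data, passing the limit was not always enough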
RGS16-Gao: regulators of human RGS16-Galphao interaction. bead-based flow cytometry RGS16-Galphao binding, fluorescence; actives lie on both sides. hit rate 0.38% among 220,000. O15492+P09471. binding response (% of control), % at 10 µM;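 active = below 25% or above 175%, edge rows of some plates excepted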;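 note: Galphao activated by GDP with aluminum fluoride before binding; 100% = wells without compound and 0% = beads without RGS; some results beyond the cut were filed as inactive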
GALR2 agonist: agonists of human galanin receptor 2 (GALR2) | O43603 | GALR2-expressing cells, agonist activation read-out | activation, %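 (tested at 5 µM)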 | hit rate 0.48% among 140,000;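 active = above mean plus 3 SD of all compounds, about 5% in these data, not always enough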;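 note: 0% = vehicle buffer wells and 100% = reference agonist at full effect; tested in CHO reporter cells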
INS promoter inh cell count: second read-out of INS promoter inh, no call of its own (marks repeat the call); normalized cell count, %; measured here: cell count, toxicity; reference of the scale not given here;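 cells exposed to compound for 48 h; stained nuclei by imaging scaled within each plate; lower means fewer cells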
HSV augment primary fold: recorded beside HSV augment, whose call it bears; fold increase; compound at 10 µM; measured here: primary screen fold increase 10 uM; tested in PC3 cells;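 GFP signal in the first replicate; 1 = infected wells without compound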
* = called active by the depositor; i = inactive; . = not tested or not shown. Not a hit list; about 1.3% have a hit in one of these screens.

SMILES	HSV augment	HSV augment primary fold	PKD1 inh	INS promoter inh	INS promoter inh cell count	RGS16-Gao	GALR2 agonist
CCOC(=O)C(C(=O)OCC)C1OC(=O)c2cc3c(cc21)C(=O)OC3C(C(=O)OCC)C(=O)OCC (configuration not stated)	i	1.1	0	47	55	124	.
CN(C)c1ccc(NC(=O)c2cn(-c3ccccc3)nc2-c2cccs2)cc1	i	0.72	0	12	147	89	-3.6
Cn1nnc2cc(C(=O)NC3CC3)ccc21	i	1	-7	38	72	106	-1.4
CC(C)(C)c1nc(NCCN2CCOCC2)c2nnn(Cc3ccccc3Cl)c2n1	i	0.65	-4	.	.	342	0.7
Cn1nnc(NCc2cc(Br)ccc2OCc2ccccc2F)n1	i	1	0	.	.	101	.
CN1C(=O)/C(=C2/C=Cc3ccccc3N2CCCS(=O)(=O)O)SC1=S	i	0.87	-14	57	103	101	-1.3
CCCn1c(SCC(=O)NCCc2ccc(OC)c(OC)c2)nc2c1c(=O)n(C)c(=O)n2C	i	0.81	-5	.	.	102	-1.4
Cn1cc(SCC(N)=O)c2ccccc21	i	1.1	-1	.	.	124	-2.1
O=C(c1nn2cccnc2c1Cl)N1CCN(c2ccccc2)CC1	i	1.1	-1	19	143	100	-0.8
O=C(Cc1cccs1)Nc1nncs1	i	0.75	4	45	80	99	0.1
Cc1ccnc(SCC(=O)c2ccc(Br)cc2)c1C#N	i	1.2	-16	61*	161*	104	-1.2
CCOC(=O)c1ccc(NCc2nc3ccccc3n2C)cc1	i	0.99	2	-5	139	100	0.0
CC1CCCCN1C(=O)Cn1c(=O)n(-c2ccc(F)cc2)c(=O)c2sccc21 (configuration not stated)	i	0.95	1	31	132	99	.
CCN1C(c2ccc(F)cc2)=CS/C1=C(\C#N)c1nnc2n1-c1ccccc1SC2	i	1	13	.	.	100	0.1
CCCC(=O)NC(NC(=S)Nc1c(C)n(C)n(-c2ccccc2)c1=O)C(Cl)(Cl)Cl (configuration not stated)	i	1	5	-43	81	108	-2.8
Cc1cccc(-n2c(O)c(/C=N/NC(=O)c3ccccc3Cl)c3ccccc3c2=O)n1	i	0.99	-5	.	.	123	-1.9
CC1Cc2ccccc2N1C(=O)COC(=O)c1c2c(nc3ccccc13)CCCCC2 (configuration not stated)	i	0.74	-1	29	57	72	-0.8
O=C(OCC#CCSc1nnc(-c2ccccc2)o1)c1ccco1	i	0.89	-6	-12	99	110	-0.1
Cc1ccc(N2C(=O)C3C(c4ccccc4)(C2=O)C3(c2ccccc2)c2ccccc2)cc1 (configuration not stated)	i	0.82	-1	-14	142	13*	-1.3
C=C(C)CN1CCN(S(=O)(=O)c2ccc(C)c(N(C)S(=O)(=O)c3ccc(C)cc3)c2C)CC1	i	0.91	0	-50	95	102	0.2
O=C(NCc1nc2ccccc2[nH]1)c1ccco1	i	1	-2	55	57	105	-2.4
Cn1c(N)c(C(=O)COC(=O)C2CC(O)CN2S(=O)(=O)c2ccc(Cl)cc2)c(=O)n(C)c1=O (configuration not stated)	i	0.82	.	.	.	81	.
Cc1nn(-c2ccccc2)c(C)c1/C=N\NS(=O)(=O)c1ccc(Cl)cc1	i	1.2	1	-46	131	104	-1.0
CN(C(=O)/C=C/c1ccc([N+](=O)[O-])s1)c1ccccc1	i	0.81	-1	-219	75	98	.
O=[n+]1c2c(n([O-])c3c1CCCC3)CCCCC2	i	1	-7	.	.	77	-1.9

An excerpt of these results, with each value named.
CN1C(=O)/C(=C2/C=Cc3ccccc3N2CCCS(=O)(=O)O)SC1=S
  HSV augment = i; HSV augment primary fold = 0.87; PKD1 inh = -14; INS promoter inh = 57; INS promoter inh cell count = 103; RGS16-Gao = 101; GALR2 agonist = -1.3
CCCn1c(SCC(=O)NCCc2ccc(OC)c(OC)c2)nc2c1c(=O)n(C)c(=O)n2C
  HSV augment = i; HSV augment primary fold = 0.81; PKD1 inh = -5; INS promoter inh = .; INS promoter inh cell count = .; RGS16-Gao = 102; GALR2 agonist = -1.4

The listing continues.
SMILES	HSV augment	HSV augment primary fold	PKD1 inh	INS promoter inh	INS promoter inh cell count	RGS16-Gao	GALR2 agonist
CN(C)CCCN(C(=O)c1cccs1)c1nc(-c2ccccc2)cs1	i	0.8	-9	.	.	104	-3.0
CCc1ccc(C(=O)c2cnc3ccc(OC)cc3c2N2CCN(CC)CC2)cc1	i	0.88	0	.	.	104	.
CCN1C(=O)c2cccc3c(S(=O)(=O)Nc4nc(C)cs4)ccc1c23	i	1.1	-9	.	.	97	-1.8
Cc1ccc2[nH]c(C(=O)O)c(-c3ccccc3)c2c1	i	0.85	-8	12	82	101	-1.8
Cc1ccnc(NC(=O)c2cccc(NC(=O)Cc3ccccc3)c2)c1	i	0.75	-8	.	.	116	.
Oc1cc2ccccc2nc1-c1ccccc1Cl	i	1.1	.	.	.	88	.
CCNCc1nc2cc(OC)c(OC)cc2c(=O)[nH]1	i	1.1	6	-11	70	108	-1.6
COC(=O)c1ccc(N=C2S/C(=C\c3cc(C)n(-c4cccnc4)c3C)C(=O)N2C)cc1	i	0.95	-5	.	.	110	-0.1
COc1ccc(Br)cc1CNC(=O)Cc1c(C(=O)O)[nH]c2ccc(Cl)cc12	i	0.87	3	.	.	94	.
C/C(=N\NC(=O)c1cccc(N/N=C(\C)c2ccncc2)c1)c1ccncc1	i	0.86	-5	58	108	95	.
Cc1c(NC(=S)NC(C)(C)C)c(=O)n(-c2ccccc2)n1C	i	1.1	3	-17	93	104	.
CN(C[C@H](Cc1ccccc1)N(C[C@H](Cc1ccccc1)N(CC1(c2ccccc2)CC1)N=O)N=O)N=O	i	1	2	.	.	96	.
CC(NC(=O)c1cc2cc([N+](=O)[O-])ccc2oc1=O)C1CCCO1 (configuration not stated)	i	0.89	-1	.	.	89	.
CC(C)CN1CCN(Cc2cnc(-c3ccc(Cl)cc3)nc2)CC1CCO (configuration not stated)	i	1	-1	.	.	102	.
CC1Oc2ccccc2N(CC(=O)c2cccc(Cl)c2)C1=O (configuration not stated)	i	0.92	8	-58	114	97	-1.7
Cc1nn(Cc2ccc(Cl)cc2)c(C)c1NC(=O)CCCn1nc([N+](=O)[O-])c(Cl)c1C	i	0.85	-1	7	50	129	-0.7
COC(=O)c1ccccc1NC(=O)NCc1ccc2c(c1)OCO2	i	0.8	-2	44	86	99	-0.4
COCc1cc(CN2CCCC(C(=O)c3cccc(C(F)(F)F)c3)C2)ccc1OC (configuration not stated)	i	0.89	-2	.	.	121	.
COC(=O)COc1ccc(NC(=O)C2CCCO2)cc1 (configuration not stated)	i	0.7	-5	62	114	113	-3.7
O=C(CSCc1ccc(Cl)cc1)N1CCCCC1	i	0.81	-13	-8	86	122	-0.9
CCc1ccccc1N/N=C(/C)c1c(O)cc(C)oc1=O	i	1	-2	.	.	105	.
COc1ccc(Cn2cnc3sccc3c2=O)cc1	i	0.99	4	26	152	100	0.7
CCN(CC)CCN1C(=O)C(=O)/C(=C(/O)c2ccc(OC)c(OC)c2)C1c1ccccn1 (configuration not stated)	i	1.1	-6	50	159	102	-1.2
O=S(=O)(c1ccccc1)N1CCN(c2ncccn2)CC1	i	1.1	0	11	99	91	-2.6
CC(Oc1ccc(Cl)cc1Cl)C(=O)Nc1cccc(O)c1 (configuration not stated)	i	1	3	.	.	99	.

Full records from above:
`O=S(=O)(c1ccccc1)N1CCN(c2ncccn2)CC1` is listed as HSV augment = i; HSV augment primary fold = 1.1; PKD1 inh = 0; INS promoter inh = 11; INS promoter inh cell count = 99; RGS16-Gao = 91; GALR2 agonist = -2.6
`CC(Oc1ccc(Cl)cc1Cl)C(=O)Nc1cccc(O)c1` (configuration not stated) is listed as HSV augment = i; HSV augment primary fold = 1; PKD1 inh = 3; INS promoter inh = .; INS promoter inh cell count = .; RGS16-Gao = 99; GALR2 agonist = .

(more compounds)
SMILES	HSV augment	HSV augment primary fold	PKD1 inh	INS promoter inh	INS promoter inh cell count	RGS16-Gao	GALR2 agonist
CCOC(=O)c1cc2c(ccn2C)n1Cc1ccccc1Cl	i	1.1	1	5	149	88	.
COCCNC(=O)c1cc2cc(Br)cc(OC)c2oc1=O	i	0.77	1	29	84	101	-1.4
Cc1nc(-c2cccc(S(=O)(=O)N3CC(C)OC(C)C3)c2)cs1 (configuration not stated)	i	0.93	-9	-54	130	101	1.7
C=CCn1c(SCCN2CCCCC2)nc2c1c(=O)[nH]c(=O)n2C	i	0.94	-2	.	.	103	-2.7
Cc1c(C(=O)Nc2cc(S(=O)(=O)N3CCOCC3)ccc2N2CCN(C)CC2)oc2ccccc12	i	0.71	.	.	.	89	.
CCc1[nH]c(=S)c(C#N)c2c1CCCC2	i	0.91	-2	-39	114	86	-1.0
O=C(Nc1ccc(N2CCN(C(=O)c3ccco3)CC2)cc1)c1ccccc1F	i	0.94	4	0	82	102	-0.2
COCCC(=O)N1CCCC(C(=O)c2ccc3c4c(cccc24)CC3)C1 (configuration not stated)	i	0.87	3	.	.	95	.
Cc1cccc(NC2=NCC(=O)N2Cc2ccccc2)c1	i	0.87	-13	-25	59	100	-0.7
O=C(c1cc([N+](=O)[O-])ccc1N1CCOCC1)N1CCCC1	i	1.1	-1	7	116	16*	-1.8
Cc1nn(CC(=O)c2ccccc2Cl)c(C)c1[N+](=O)[O-]	i	0.98	2	.	.	97	.
Cc1ccc(C(=O)OCC(=O)NCc2cccs2)cc1	i	0.97	-5	.	.	100	0.7
COc1ccc(CN2C3CCCC2CC(NC(=O)Nc2ccccc2C)C3)cc1 (configuration not stated)	i	0.8	-4	48	102	105	-0.4
COc1cc(Br)cc(C=Nc2cccc(C(F)(F)F)c2)c1O	i	1	-3	-18	84	101	-0.5
COC(=O)CNC(=O)CN1C(=O)N(c2cccc(Cl)c2)C(N(O)C(=O)Nc2cccc(Cl)c2)C1(C)C (configuration not stated)	i	0.86	4	-3	145	81	-4.4
Cc1nc2ccc(-c3nc4ccccc4[nH]3)cc2[nH]1	i	0.99	-3	30	53	147	.
CCN(CC)c1ccc(/C=N/NC(=O)CNC(=O)c2ccccn2)cc1	i	1.1	-4	15	90	103	.
CC#CCN1c2ccccc2[C@]23C[C@@H](C(=O)OC)N=C2NC(C(=O)OC)=C(C(=O)OC)[C@H]13	i	1.1	.	.	.	100	.
O=C(NCc1ccccc1)C1C(=O)N(Cc2ccccc2)C(=O)C1C1(O)CCCC1 (configuration not stated)	i	0.87	-9	6	106	104	-0.5
Fc1ccc(-c2csc3nnc(SCc4cccnc4)n23)cc1	i	0.82	-4	22	107	107	-0.9
CCOC(=O)N1CCC(N(CCN(C)C)C(=S)Nc2cccc(Cl)c2C)CC1	i	0.91	-11	-56	141	103	0.0
CCCCCOC(=O)CSc1nc2c(c(=O)[nH]c(=O)n2C)n1CCc1ccccc1	i	1	6	6	110	106	-2.9
CCOc1ccc2nc(SCc3ccc(CC(=O)O)cc3)c(C#N)cc2c1	i	0.98	-6	-24	160	110	.
COc1cc(OC)nc(NC(=O)CS(=O)(=O)c2ccccc2)n1	i	0.85	-5	45	158	107	-1.5
CCc1[nH]nc2c1C1(CCN(C(=O)c3ccccc3)CC1)C(C#N)=C(N)O2	i	0.87	-9	.	.	102	-3.0

Next results.
SMILES	HSV augment	HSV augment primary fold	PKD1 inh	INS promoter inh	INS promoter inh cell count	RGS16-Gao	GALR2 agonist
CC1=C(C(=O)Nc2ccccn2)C(c2ccc(F)cc2)n2ncnc2N1 (configuration not stated)	i	0.88	-7	.	.	56	-1.7
O=C(CSc1nnc(-c2ccccn2)n1Cc1ccccc1)N1CCCC1	i	1	-3	30	75	84	-1.4
CN(CC(=O)Nc1ccc(Cl)c(Cl)c1)C(=O)C12CC3CC(CC(C3)C1)C2	i	0.9	-12	-50	41	107	-0.1
CCc1cccc(NC(=O)CS(=O)Cc2nc(-c3ccc(C)cc3)oc2C)c1 (configuration not stated)	i	1.1	1	.	.	110	-1.4
COC(C(=O)Nc1ccc(S(=O)(=O)N2CCCCC2)cc1)c1ccccc1 (configuration not stated)	i	0.88	2	-3	129	76	-0.9
Cn1c(=O)n(C)c2cc([N+](=O)[O-])c(N3CCN(C(=O)c4ccccc4Br)CC3)cc21	i	0.99	-13	45	74	100	.
CNC(=O)CSc1nnc(-c2ccc(S(=O)(=O)N3CCCC3)cc2)n1-c1cccc(C)c1C	i	0.89	-4	-10	53	99	3.1
O=C(O)C1C2CCC(C2)C1C(=O)NCCCn1ccnc1 (configuration not stated)	i	0.91	.	.	.	107	.
CSc1nc2ccccc2nc1N(C)S(=O)(=O)c1ccc(C)cc1	i	1.1	.	.	.	99	.
CC(C)OC(=O)c1cccc(C(=O)Nc2cccc(NC(=O)c3cccc(C(=O)OC(C)C)n3)n2)n1	i	0.9	0	21	96	102	.
